Screening data: PubChem BioAssay, National Center for Advancing Translational Sciences (NCATS)
Lassa entry inh = qHTS for Inhibitors of binding or entry into cells for Lassa Virus; Potency, µM (doses to about 37.9 µM), without a hit: top-dose activity change, negative = inhibition, hits mostly inhibitors; 300,000 tested, 1.2% active; Lassa virus pseudotype entry inhibition, cell reporter; control for the full effect not named in the record; active means well fitted inhibition curve with a large enough effect; inconclusive means small, poorly fitted or top-dose-only effect, or effect the other way; inactive means flat fitted curve, though single readings scatter; tested in HEK293 cells; further: on the % scale 0 is the no-effect control and ±100 the full control effect; nearly all actives have a fitted effect of over 50% in size; luciferase read-out
MARV entry inh = qHTS for inhibitors of binding or entry into cells for Marburg Virus | Potency, µM (highest dose often 37.8 µM), without a hit: at the highest dose activity change, negative = inhibition, most hits filed as inhibitors | 300,000 tested, 1.8% active | AID 540276, 2011 | Marburg virus pseudotyped entry inhibition, cell reporter; control for the full effect not named in the record; about a third of the inactives were read at about 46 µM; active = well fitted inhibition curve with a large enough effect; inconclusive = small, poorly fitted or top-dose-only effect, or effect the other way; inactive = flat fitted curve, though single readings scatter; tested in HEK293 cells; about a fifth of its hits are not listed in these tables; further: on the % scale 0 is the no-effect control and ±100 the full control effect; luciferase read-out
Cruzain noTriton = qHTS Assay for Promiscuous and Specific Inhibitors of Cruzain (without detergent); 200,000 tested, 2.3% active; AID 1476, 2009; purified cruzain, Z-FR-AMC fluorescence, no detergent; Potency, µM, inactives show max response, negative = inhibition, usual class: inhibitors;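 further: plate controls were enzyme without inhibitor for no effect and buffer without enzyme for full effect; nearly all actives have a fitted effect of over 40% in size; top concentration of the series not given in the record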
Target sequence (P25779 123-467 limits assumed): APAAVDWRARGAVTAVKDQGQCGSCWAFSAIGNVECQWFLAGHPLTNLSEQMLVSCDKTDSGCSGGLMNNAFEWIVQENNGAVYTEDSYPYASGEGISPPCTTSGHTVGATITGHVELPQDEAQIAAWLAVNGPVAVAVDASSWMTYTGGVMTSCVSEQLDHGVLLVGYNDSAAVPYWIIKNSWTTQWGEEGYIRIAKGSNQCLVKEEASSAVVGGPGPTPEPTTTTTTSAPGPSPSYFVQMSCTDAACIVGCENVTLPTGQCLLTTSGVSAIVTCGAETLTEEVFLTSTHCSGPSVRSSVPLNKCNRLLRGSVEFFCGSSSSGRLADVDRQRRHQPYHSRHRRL
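Purified cruzain at 1.5 nM, pre-incubated 15 min with compound at room temperature in 100 mM sodium acetate pH 5.5, 5 mM DTT, 0.00005% Triton X-100. Reaction started with 2 uM Z-FR-AMC; AMC fluorescence increase over 60 s gives rate.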
RE007 growth inh = qHTS Assay for Inhibitors of the HIV-1 protein Vpr; 360,000 tested, 0.21% active; S. pombe RE007 Vpr strain, BacTiter-Glo ATP luminescence, 24 h; control for the full effect not named in the record; AID 651644, 2012; Potency, µM (series often up to 92.2 µM), inactives show at the top dose activity change, negative = less growth; active = well fitted falling curve with a large enough effect; inconclusive = small, poorly fitted or top-dose-only effect; inactive = no such curve, though single readings can be large or run the other way;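 further: on the % scale 0 is the no-effect control and ±100 the full control effect; nearly all actives have a fitted effect of over 50% in size; the assay follows cell death caused by Vpr and the record does not say whether a fall means rescue or toxicity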
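Fission yeast RE007 carrying one integrated HIV-1 vpr copy, seeded at OD 0.01 in PMG+AL medium with 23 nL pinned compound. Grown 24 h at 30 degrees; viability read by BacTiter-Glo luminescence after 5 min.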
StopGo reporter = High Throughput Screening for Foot and Mouth Disease Virus Antivirals. human cells with a luciferase reporter of 2A StopGo recoding; control for the full effect not named in the record. Potency, µM (highest dose often 57.9 µM), for inactives: top-dose signal change, negative = less light. 410,000 tested, 1.2% active; active = well fitted falling curve with a large enough effect; inconclusive = small, poorly fitted or top-dose-only effect; inactive = no such curve, though single readings can be large or run the other way; tested in HEK293T cells; further: on the % scale 0 is the no-effect control and ±100 the full control effect; nearly all actives have a fitted effect of over 45% in size; luciferase light after 4 h
NS1 inh = qHTS Assay for Inhibitors of Influenza NS1 Protein Function; S. cerevisiae slowed by influenza A NS1, growth recovery by OD600; Potency, µM (highest dose often 46.1 µM), for inactives: at the top dose activity, positive = more growth; 270,000 tested, 0.4% active; active means well fitted rising curve with a large enough effect; inconclusive means small, poorly fitted or top-dose-only effect; inactive means no such curve, though single readings can be large or run the other way; further: nearly all actives have a fitted effect of over 50% in size
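Growth recovery, yeast-based: influenza A NS1 expressed in S. cerevisiae causes slow growth, and suppressors are detected by OD600. The parent strain without NS1 is used as positive control.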
SARS PLP yeast = qHTS of Yeast-based Assay for SARS-CoV PLP | S. cerevisiae expressing SARS-CoV PLpro, growth rescue; control for the full effect not named in the record | Potency, µM (titrated, usually from 32.9 µM), inactives show top-dose activity, positive = growth rescue | 330,000 tested, 0.19% active | AID 485353, 2010; active means well fitted rising curve with a large enough effect; inconclusive means small, poorly fitted or top-dose-only effect; inactive means no such curve, though single readings can be large or run the other way; further: 0% is about no effect; nearly all actives have a fitted effect of over 55% in size; growth read by luminescence after 48 h
Cruzain inh Det = qHTS Assay for Promiscuous and Specific Inhibitors of Cruzain (with detergent) | Cruzipain (Trypanosoma cruzi), P25779 | purified cruzain, Z-FR-AMC fluorescence, 0.01% Triton | Potency, µM, inactives show max response, negative = inhibition, usual class: inhibitors | 200,000 tested, 0.43% active;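 further: plate controls were neutral wells for no effect and buffer without enzyme for full effect; nearly all actives have a fitted effect of over 40% in size; top concentration of the series not given in the record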
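15 min RT preincubation of 1.5 nM cruzain with compound, then 2 uM Z-FR-AMC added; kinetic AMC fluorescence, 60 s delta. Triton X-100 0.01%, pH 5.5.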
Active calls of the source: *; ? = inconclusive; . = not tested or not shown; & = joins results of further samples; [ ] = remark or other dose. Unless noted, the call rests on the fitted dose curve; in most records, active means well fitted curve in the direction sought with a large enough effect; inconclusive means small, poorly fitted or top-dose-only effect, or another doubt; inactive means no such curve, though single readings can be large; an effect the other way counts as inactive or inconclusive. Potency means the concentration at half of the fitted maximal effect.

SMILES,Lassa entry inh,MARV entry inh,Cruzain noTriton,RE007 growth inh,StopGo reporter,NS1 inh,SARS PLP yeast,Cruzain inh Det
Cc1ccc(NC(=O)CN2C(=O)CCn3nc(-c4cccn4C)cc32)cc1,19%[46.1 µM],.,10%,.,-4%,.,.,-1.9%
O=C(NC(=S)Nc1ccccc1)c1ccc(-c2ccccc2)cc1,-1%,?,-14%,-16%,-7%,13%,9%,-2.2%
O=S(=O)(c1ccc(Br)cc1)N1CCCC1,.,.,.,6%,0%,8%,-7%,.
CCN(CC)S(=O)(=O)c1ccc(NC(=O)CSc2nnc(-c3cccc(OC)c3)n2C)cc1,-7%,?,?,-2%,?,1%,17%,-0.9%
Cc1c(C(=O)N2CCN(c3ccccn3)CC2)sc2ncnc(N3CCN(c4ccccc4)CC3)c12,-23%,-29%,.,-4%,?,-23%,.,.
O=C(CCNS(=O)(=O)/C=C/c1ccccc1)NCCc1c[nH]c2ccccc12,?,4%,.,-18%,4%,4%,0%,.
CCCCn1c(O)c(N=NC(=O)c2ccccc2NS(=O)(=O)c2cccs2)c2ccccc21,?,8%,?,-9%,-4%,1%,-10%,-8.6%
O=C(NCC(=O)N(CCN1CCOCC1)C(C(=O)NC1CCCC1)c1cccnc1)c1cccs1 (stereo not given),21%&6%,2%&17%,-4%,-4%,-22%,-5%,6%,0.3%
O=C(Cc1ccc(Cl)cc1)NCC(=O)N1CCCC1,24%,-5%,2%,-11%,-17%,1%,-2%,2.1%
CC(=O)Nc1ccc(S(=O)(=O)N2CCC(C(=O)NCc3ccco3)CC2)cc1,18%[46.1 µM],2%[46.1 µM],.,-1%,-3%,8%,-9%,.
C=CCCN(C(CC(C)C)C(=O)OC)S(=O)(=O)c1cc(Br)ccc1Br (stereo not given),.,.,.,4%,0%,-7%,-9%,.
C#CCOCCOCCOCCNc1nc(N2CCOCC2)nc(N2CCN(C(=O)[C@H](C)n3cc(CCCN=C(N)N)nn3)CC2)n1,5%,2%,-2%,-26%,-6%,-26%,7%,-4.2%
COc1ccc(CNC(=O)C(=O)Nc2cccc(C)c2C)cc1,17%[46.1 µM],1%[46.1 µM],-1%,.,7%,.,.,-0.7%
COCCn1c(SCC(=O)Nc2ccc(Cl)cn2)nc2ccccc21,7%,2%,-10%,2%,-20%,-62%,9%,-8.4%
COc1ccc(C(=O)c2c(N)sc3c2CCN(C(=O)OC(C)(C)C)C3)cc1,?,?,.,5%,?,4%,0%,.
NC(=O)COc1ncn(-c2ccccc2)n1,15%,10%,0%,18%,19%,5%,2%,5.7%
COc1ccc(-n2ccnc2SCC(=O)Nc2cccc(OC)c2)cc1,-26%[46.1 µM],.,-11%,.,-22%,.,.,-2.5%
CCCNC(=O)c1ccc2c(=O)c(O)c(-c3ccc(C)cc3)[nH]c2c1,.,.,.,-9%,-23%,-33%,?,.
CC(/C=N\NC(=O)Cn1c(C)nc2ccccc21)=C\c1ccccc1,-23%,?,4%,-11%,?,-6%,1%,-1.1%
COc1cc(C)ccc1OCCSc1nnc(-c2cccs2)o1,18%[46.1 µM],16%[46.1 µM],-9%,.,6%,.,.,-5.8%
COc1ccc(C2CCCN2C(=O)Nc2cccc(C(C)=O)c2)cc1OC (stereo not given),-1%,3%,9%,16%,-20%,-11%,7%,6.2%
CCCCNC(=O)c1sc(=S)n(-c2ccccc2OC)c1N,?,14%,5%,1%,-15%,-7%,11%,4.3%
CCN1CCN(S(=O)(=O)c2ccc3c(c2)OCCO3)CC1,19%,?,-12%,12%,25%,3%,-1%,1.2%
COCc1cc(C)n(CC(=O)NCC2CCCO2)c(=O)c1C#N (stereo not given),12%[46.1 µM],6%[46.1 µM],.,-10%,-9%,17%,6%,.
CCN1CCN(C(c2cccs2)C(C)NC(=O)c2ccccc2OC)CC1 (stereo not given),.,.,-14%,4%,-6%,-10%,2%,-2.7%
CC1=C(c2ccc(C)c(C)c2)S(=O)(=O)N=C1N1CCC(C(=O)N2CCCCC2)CC1,16%[46.1 µM],.,?,.,-6%,.,.,3.3%
O=C1OC(c2cc(Br)c(O)c(Br)c2)c2ccccc21 (stereo not given),22%[46.1 µM],7%[46.1 µM],.,-2%,?,.,.,.
O=C(Nc1ccc(N2C(=O)C3C4C=CC(C4)C3C2=O)cc1Cl)c1cccs1 (stereo not given),18%[46.1 µM],?,.,6%,16%,.,1%,.
CCCSc1ncnc2[nH]ncc12,-6%[46.1 µM],3%[46.1 µM],.,0%,-2%,.,.,.
O=c1c2sccc2n(Cc2ccc(F)cc2)c(=O)n1-c1ccc(F)cc1,6%,14%,0%,3%,-7%,5%,5%,-1.4%
O=S(=O)(Nc1nc(SCc2ccc(Cl)cc2)n[nH]1)c1ccccc1,.,.,.,26%,-29%,1%,-1%,.
CN1CCN(C(=O)c2cc3sc4ccccc4c3s2)CC1,-11%[46.1 µM],-28%[46.1 µM],.,-1%,-10%,0%,2%,.
COc1cc(/C=N/Nc2nnc3c(n2)[nH]c2ccccc23)ccc1O,8%,16%,-7%,-5%,-9%,11%,12%,-3.5%
Cc1cc(NC(=O)CCNS(=O)(=O)c2ccc3c(c2)CCCC(=O)N3)ccc1Br,-12%[46.1 µM],.,-1%,.,0%,.,.,0.2%
CCCc1ccc(S(=O)(=O)NCc2nnc(SC)n2C)cc1,.,?,.,12%,-2%,2%,1%,.
CC1CCN(S(=O)(=O)c2ccc(F)c(C(=O)O)c2)CC1,4%,10%,-2%,2%,-8%,0%,11%,4.7%
C=CCSC1=C(C#N)C(c2ccccc2Cl)C(C(=O)c2cccs2)C(O)(C(F)(F)F)N1 (stereo not given),-2%,?,5%,5%,-23%,-17%,-28%,-4.7%
COc1cc(OC)c(NC(=O)c2cc(S(=O)(=O)N3CCOCC3)cn2C)cc1Cl,.,.,.,3%,0%,-5%,-8%,.
Cc1c(Br)c(C(F)(F)F)nn1CC(=O)NCC1CCCO1 (stereo not given),3%,6%,7%,0%,.,2%,-6%,4.0%
Cc1csc(NC(=O)CSc2nc(C(C)C)nc3c2c(=O)n(C)c(=O)n3C)n1,.,.,-13%,1%,?,-53%,18%,-11%
CC(=O)Nc1ccc(S(=O)(=O)Nc2cccc(-c3ccc4nncn4n3)c2)cc1,-2%[46.1 µM],-19%[46.1 µM],.,-3%,9%,.,4%,.
COc1ccccc1C(=O)Nc1ccccc1OCc1cc(=O)n2c(C)csc2n1,22%[46.1 µM],9%[46.1 µM],2%,.,-16%,.,.,0.5%
COc1ccccc1C1CC(=O)Nc2cc(C)c(C)cc21 (stereo not given),?,?,.,-4%,-13%,28%,0%,.
COc1ccccc1C(=O)NC(=O)COC(=O)Cc1n[nH]c(=O)c2ccccc12,1%,2%[46.1 µM],.,2%,-10%,.,-5%,.
Cc1cc(NC(=O)c2ccco2)cc(-c2nc3cc(Cl)ccc3o2)c1O,19%[46.1 µM],1%[46.1 µM],-10%,.,0%,.,.,0.9%
OC(CNCc1ccccn1)c1ccccc1 (stereo not given),-1%,-20%,-7%,0%,-12%,7%,-36%,0.0%
CN1CCN(CC(=O)NN(Cc2ccccc2)c2ccccc2)CC1,12%,?,.,3%,-7%,-6%,-4%,.
Cn1cc(/C=C/C(=O)c2ccccc2)c2ccccc21,?,?,.,1%,-32%,-9%,-4%,.
Cc1ccc(CN2CCc3c(OCC(=O)Nc4cc(C)ccc4C)cccc3C2=O)cc1,?,-4%,?,.,.,4%,-3%,-4.1%
CCOCCCNC(=O)C1CCC(CNS(=O)(=O)c2cccc3nsnc23)CC1 (stereo not given),17%,-28%,7%,4%,-19%,-5%,5%,-3.2%

The list continues.
SMILES,Lassa entry inh,MARV entry inh,Cruzain noTriton,RE007 growth inh,StopGo reporter,NS1 inh,SARS PLP yeast,Cruzain inh Det
COC(=O)CN1C(=O)C(C)(C)Oc2ccc(C(=O)Nc3cccc(OC)c3)cc21,?,?,.,5%,-27%,-10%,0%,.
CC1=C(c2ccc(C(C)C)cc2)S(=O)(=O)NC1=NCc1ccccc1Br,-2%[46.1 µM],?,8%,.,23%,.,.,-3.3%
Cc1nc2cc(-c3ccccc3)nn2c(C)c1CCC(=O)N1CCN(c2ccccc2)CC1,10%[46.1 µM],-2%[46.1 µM],?,2%,?,-1%,3%,2.5%&-19%
CC/C(O)=C(/C#N)c1nnc2n1CCCCC2,-1%,20%,-11%,4%,.,-2%,?,-1.3%
Cc1ccc(OCCC(=O)Nc2ccc3c(c2)OCCCO3)cc1,4%,4%,.,-27%,17%,.,4%,.
COc1ccc2[nH]c(C(=O)N/N=C/c3ccc(OC)c(O)c3)cc2c1,5.6µM*,?,.,8%,7%,2%,0%,.
CC(C)C1C(=O)NC(=S)N1S(=O)(=O)c1ccc(C(C)(C)C)cc1 (stereo not given),-14%,?,-9%,-1%,-22%,-2%,-10%,-6.3%
NS(=O)(=O)c1ccc(NC(=O)c2cc(=O)c3ccccc3o2)cc1,-8%[46.1 µM],5%[46.1 µM],.,5%,11%,-7%,-6%,.
CC(C)(C)NC(=O)CCN(/N=C/c1ccccc1O)C1=NS(=O)(=O)c2ccccc21,?,-24%,.,-7%,-15%,-8%,2%,.
CCOC(=O)C1=NNC2(c3ccccc3)C(=O)N(c3cccc(Br)c3)C(=O)C12 (stereo not given),0%,18%,-10%,-8%,-16%,-5%,16%,-3.5%
CCn1ccnc1C[C@@H]1COc2ccccc2O1,.,?,3%,.,6%,.,.,-3.0%
COc1ccc(C(=O)Nc2nc3ccccc3s2)cc1OC,?,?,.,-12%,33%[activator],-7%,-1%,.
Cc1cccc(N2CCN(C(=O)c3csc4ccccc34)CC2C)c1 (stereo not given),-14%,?,-10%,-1%,3%,-3%,-6%,-3.7%
Cc1ccc(S(=O)(=O)NCc2cccc([N+](=O)[O-])c2)cc1,.,.,-5%,-14%,42%[activator],-1%,.,2.6%
